GALR2 ag – GALR2 (human) receptor agonism; O43603; GALR2-expressing cells, agonist activation read-out; activation, %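 (tested at 5 µM)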; 140,000 compounds, 0.48% hits;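 active means above mean plus 3 SD of all compounds, about 5% in these data, not always enough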;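 further: 0% = vehicle buffer wells and 100% = reference agonist at full effect; tested in CHO reporter cells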
Target sequence (O43603 whole entry, looked up): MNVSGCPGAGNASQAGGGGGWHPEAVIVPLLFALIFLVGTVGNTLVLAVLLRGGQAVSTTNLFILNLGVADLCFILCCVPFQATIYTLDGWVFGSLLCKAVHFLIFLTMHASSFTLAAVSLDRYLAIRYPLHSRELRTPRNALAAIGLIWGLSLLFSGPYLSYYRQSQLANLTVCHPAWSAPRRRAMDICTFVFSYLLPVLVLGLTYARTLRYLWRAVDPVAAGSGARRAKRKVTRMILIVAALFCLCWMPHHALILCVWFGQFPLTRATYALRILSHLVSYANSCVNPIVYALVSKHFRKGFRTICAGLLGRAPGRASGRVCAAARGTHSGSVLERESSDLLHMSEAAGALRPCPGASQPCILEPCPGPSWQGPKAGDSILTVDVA
RGS16-Gao – RGS16-Galphao interaction regulator (human); O15492+P09471; bead-based flow cytometry RGS16-Galphao binding, fluorescence; actives lie on both sides; binding response (% of control), % at 10 µM; 220,000 compounds, 0.38% hits;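 active means below 25% or above 175%, edge rows of some plates excepted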;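 further: Galphao activated by GDP with aluminum fluoride before binding; 100% = wells without compound and 0% = beads without RGS; some results beyond the cut were filed as inactive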
Target sequence (O15492 whole entry, looked up): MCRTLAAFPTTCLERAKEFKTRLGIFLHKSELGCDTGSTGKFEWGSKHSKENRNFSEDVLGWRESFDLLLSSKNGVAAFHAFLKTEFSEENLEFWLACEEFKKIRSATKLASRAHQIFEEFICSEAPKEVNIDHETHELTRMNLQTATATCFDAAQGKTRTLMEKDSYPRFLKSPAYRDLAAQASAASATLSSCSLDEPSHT
Target sequence (P09471 whole entry, looked up): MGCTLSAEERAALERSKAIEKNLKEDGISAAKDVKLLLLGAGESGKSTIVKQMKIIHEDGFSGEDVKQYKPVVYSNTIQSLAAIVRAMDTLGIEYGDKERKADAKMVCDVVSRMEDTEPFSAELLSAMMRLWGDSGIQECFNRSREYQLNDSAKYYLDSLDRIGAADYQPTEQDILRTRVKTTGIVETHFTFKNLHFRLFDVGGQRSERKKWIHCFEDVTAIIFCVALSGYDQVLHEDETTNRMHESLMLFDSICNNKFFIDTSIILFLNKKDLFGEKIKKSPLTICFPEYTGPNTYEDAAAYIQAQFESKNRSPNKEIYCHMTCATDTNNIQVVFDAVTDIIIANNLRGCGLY
HSV augment – HSV replication enhancement. HSV replication augmentation in cells, fold increase. maximum fold increase. 220,000 compounds, 0.005% hits. AID 1956;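 active means peak rise of 1.5-fold or more in the series; inconclusive means self-fluorescent or not available for retest; tested in PC3 cells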;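 further: first round at 10 µM; read as green reporter fluorescence; hits show the peak of a series up to 25 µM; 1 = signal of infected wells without compound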
INS promoter inh – TRM-6 insulin promoter activity inhibition. inhibition, % at 2 µM. TRM-6 cells (human fetal islet line), insulin promoter-eGFP reporter, imaging; reporter expression induced with tamoxifen. 130,000 compounds, 0.9% hits. AID 1273;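 active means inhibition above the mean plus 3 SD, with well images judged a real hit on visual review, cut at about 60% in these data, passing the limit was not always enough; inconclusive means inhibition over the cutoff but images rejected on review; inactive means inhibition not above the cutoff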
PKD1 kinase inh – blocks activity of human protein kinase D1; Q15139; PKD1 kinase fluorescence polarization assay; inhibition, %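 (about 10 µM by stock and volumes)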; 200,000 compounds, 0.056% hits;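 active means inhibition of 50% or more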;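 further: controls were vehicle for no effect and a reference inhibitor for full effect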
INS promoter inh cell count – second read-out of INS promoter inh, no call of its own (marks repeat the call); normalized cell count, %; measured here: cell count, toxicity; reference of the scale not given here;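 cells exposed to compound for 48 h; stained nuclei by imaging scaled within each plate; lower means fewer cells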
HSV augment primary fold – recorded beside HSV augment, whose call it bears; fold increase; compound at 10 µM; measured here: primary screen fold increase 10 uM; tested in PC3 cells;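 GFP signal in the first replicate; 1 = infected wells without compound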
Numbers without * were called inactive; i = inactive; u = inconclusive; x = no result given.

The line under a structure holds: GALR2 ag	HSV augment primary fold	INS promoter inh	INS promoter inh cell count	RGS16-Gao	PKD1 kinase inh	HSV augment
1: CCc1nc2oc3cc(OC)ccc3c(=O)c2c(=O)n1Cc1ccccc1
→ 0.1	0.91	67*	109*	87	2	i
2: Cc1ccc(C23CC4CC(CC(C(=O)N5CCOCC5)(C4)C2)C3)cc1
→ -1.8	1.1	11	67	106	-2	i
3: O=C(NC1CCCCC1)C(c1ccc(F)cc1)N(C(=O)Cc1ccsc1)c1ccc(F)cc1 (stereo not given)
→ -1.1	0.93	7	135	99	-1	i
4: O=S(=O)(c1ccc2nnn(O)c2c1)N1CCCCC1
→ x	0.96	-9	101	97	-6	i
5: CC(C)C(=O)c1cn(CC(=O)NCC2CCCO2)c2ccccc12 (stereo not given)
→ -0.9	1	x	x	90	-14	i
6: CC(C)CC(C(=O)O)N1C(=O)[C@@H]2[C@H](C1=O)[C@@H]1C[C@H]2C(Br)C1Br (stereo not given in full)
→ -0.9	1	x	x	61	2	i
7: Cc1cc(/C=N/Nc2nc(N3CCOCC3)nc(N3CCOCC3)n2)c(C)n1-c1ccccc1
→ x	0.92	44	108	28	-3	i
8: Cc1ccccc1Nc1c(-c2ccccn2)nc2c(C)cccn12
→ x	0.86	x	x	98	-1	i
9: COc1ccc(OC)c(NC(=S)NCc2ccco2)c1
→ -0.4	0.93	39	127	x	-11	i
10: Cc1cccc(N2C(=S)N=C(Nc3c(C)cccc3C)C23CCOC(C)(C)C3)c1 (stereo not given)
→ -3.0	0.95	-53	93	105	-4	i
11: C=CCOc1nc(-c2ccccc2Cl)nc2ccccc12
→ x	1.1	x	x	101	x	i
12: c1cc(CSc2nnc(-c3ccc4c(c3)OCO4)o2)ccn1
→ -0.5	0.96	-7	175	95	5	i
13: COc1ccc(C(=O)N[C@H]2COC(C)(C)O[C@H]2c2ccccc2)cc1
→ -3.3	0.98	-14	176	90	-4	i
14: Cc1ccc(CN(C#N)c2nc(C)cc(C)n2)cc1
→ -1.6	1.1	9	65	107	4	i
15: Cc1ccc(Cn2c(=O)n(-c3ccccc3)c(=O)c3ccc(C(=O)NCc4ccco4)cc32)cc1
→ -0.7	x	14	104	x	-10	x
16: N#Cc1nc(COc2ccc(F)cc2)oc1NCCN1CCOCC1
→ -2.0	1	43	115	108	0	i
17: CNc1ccc(Br)cc(C(=O)/C=C/c2cc(OC)ccc2OC)c1=O
→ -0.1	0.92	-53	288	94	-9	i
18: CCN(C(=O)COc1ncnc2ccc(Br)cc12)C1CCS(=O)(=O)C1 (stereo not given)
→ -3.7	0.82	x	x	95	-5	i
19: Cc1ccc(NS(=O)(=O)c2ccc(-c3csc(C)n3)s2)c(C)c1
→ x	1.1	x	x	100	x	i
20: CN1CCN(C(=O)C2=C[C@@H](c3coc4ccccc4c3=O)C[C@@H](OCCCCO)O2)CC1
→ x	1.1	x	x	98	3	i
21: NS(=O)(=O)c1ccc(Nc2nc(-c3ccc4ccccc4c3)cs2)cc1
→ 0.2	0.73	x	x	96	2	i
22: O=C(Nc1ccccc1)C1CC(O)CN1S(=O)(=O)c1ccc([N+](=O)[O-])cc1 (stereo not given)
→ x	0.99	x	x	99	x	i
23: Cc1ccc2nc(/C(C#N)=C/c3ccc(-c4cccc([N+](=O)[O-])c4)o3)[nH]c2c1
→ 1.1	x	x	x	47	-4	u
24: Cc1cccc(NC(=S)NCC(C)CSc2ccc(Cl)cc2)c1 (stereo not given)
→ x	1	-10	60	99	10	i
25: COC(=O)c1sc(SC)nc1N
→ x	0.91	x	x	102	x	i
26: Cc1cc(C)nc(N2CCCC(C(=O)NC(C)CCc3ccco3)C2)n1 (stereo not given)
→ -0.3	1.2	-71	106	143	-9	i
27: O=C(c1ccncc1)N(c1ccc2oc3c(c2c1)CCCC3)S(=O)(=O)c1ccc(F)cc1
→ -1.4	0.96	7	138	107	8	i
28: CC(C)Nc1nc(NC(C)C)nc(N(C#N)CCOc2ccc(Cl)cc2Cl)n1
→ -1.2	1.1	0	91	x	-4	i
29: Cc1ccc(N(C(=O)Cn2nnc(-c3ccccc3)n2)C(C(=O)NC2CCCCC2)c2ccccn2)cc1C (stereo not given)
→ -1.3	0.88	-344	92	93	-5	i
30: Cc1cc(NC(=O)CSc2nnc(C3COc4ccccc4O3)n2C)no1 (stereo not given)
→ x	1	8	112	73	2	i
31: N#C/C(=C/c1cccc([N+](=O)[O-])c1)c1nnc2n1CCCCC2
→ -0.9	0.71	x	x	99	1	i
32: O=C(CCCCn1c(=O)c2ccccc2n(Cc2ccccc2F)c1=O)NC1CCN(Cc2ccccc2)CC1
→ x	0.73	-46	64	102	-8	i
33: Cc1oc(CC(C)C)cc1C(=O)Nc1cccc2ccccc12
→ -2.0	1	-63	169	101	-3	i
34: C/C(=N\NC(=O)c1ccc(CN2CCc3ccccc3C2)cc1)c1ccccc1O
→ x	1	x	x	96	9	i
35: O=C(CNC(=O)c1ccccc1F)N/N=C/c1cc(Br)ccc1OCc1ccccc1
→ 0.8	0.93	-35	83	116	1	i
36: CC(=O)Nc1ccc2oc(C)nc2c1
→ x	1	-48	97	98	0	i
37: COc1cc(CN(C(=S)NCC(=O)O)C2CCCC2)cc(OC)c1OC
→ x	1.1	x	x	84	-4	i
38: O=C1CC(N2CCN(c3ccccn3)CC2)C(=O)N1c1ccc(Cl)cc1 (stereo not given)
→ x	1.1	x	x	114	8	i
39: CCOC(=O)c1cnc2c(OC)cccc2c1Nc1ccc2c(c1)OCCO2
→ 0.4	0.62	20	95	108	3	i
40: O=C(CC1C(=O)NCCN1CC1CCCCC1)NCc1cccc(F)c1F (stereo not given)
→ x	0.96	x	x	100	-7	i

By substructure, the entries above with bromine (4)
The line under a structure holds: GALR2 ag	HSV augment primary fold	INS promoter inh	INS promoter inh cell count	RGS16-Gao	PKD1 kinase inh	HSV augment
6: CC(C)CC(C(=O)O)N1C(=O)[C@@H]2[C@H](C1=O)[C@@H]1C[C@H]2C(Br)C1Br (stereo not given in full)
→ -0.9	1	x	x	61	2	i
17: CNc1ccc(Br)cc(C(=O)/C=C/c2cc(OC)ccc2OC)c1=O
→ -0.1	0.92	-53	288	94	-9	i
18: CCN(C(=O)COc1ncnc2ccc(Br)cc12)C1CCS(=O)(=O)C1 (stereo not given)
→ -3.7	0.82	x	x	95	-5	i
35: O=C(CNC(=O)c1ccccc1F)N/N=C/c1cc(Br)ccc1OCc1ccccc1
→ 0.8	0.93	-35	83	116	1	i

Pulled by structure from the list above, three records:
The line under a structure holds: GALR2 ag	HSV augment primary fold	INS promoter inh	INS promoter inh cell count	RGS16-Gao	PKD1 kinase inh	HSV augment
35: O=C(CNC(=O)c1ccccc1F)N/N=C/c1cc(Br)ccc1OCc1ccccc1
→ 0.8	0.93	-35	83	116	1	i
27: O=C(c1ccncc1)N(c1ccc2oc3c(c2c1)CCCC3)S(=O)(=O)c1ccc(F)cc1
→ -1.4	0.96	7	138	107	8	i
33: Cc1oc(CC(C)C)cc1C(=O)Nc1cccc2ccccc12
→ -2.0	1	-63	169	101	-3	i

(more compounds)
The line under a structure holds: GALR2 ag	HSV augment primary fold	INS promoter inh	INS promoter inh cell count	RGS16-Gao	PKD1 kinase inh	HSV augment
41: CCC(=O)N1CCN(CCN=CC2=C(O)CC(C)(C)CC2=O)CC1
→ -1.9	1.1	-62	131	165	-6	i
42: COc1ccc(C(=O)NNC(=O)CSc2nnc(-c3cccnc3)n2C)cc1
→ x	1	x	x	102	-1	i
43: Cc1cccc(NC(=O)CSc2nnc(-c3ccco3)o2)c1
→ -1.8	0.93	-64	48	101	-9	i
44: CCOC(=O)c1cc(C)n(-c2c(C)n(C)n(-c3ccccc3)c2=O)c1C
→ -1.1	1	x	x	106	-3	i
45: CCOc1cc(CNn2cn[nH]c2=S)cc(Cl)c1OCc1ccccc1F
→ 1.1	0.92	x	x	99	6	i
46: COc1ccc(-c2nc(-c3cccnc3)no2)cc1
→ x	0.96	x	x	99	x	i
47: Cc1ccc(NC(=O)c2ccc(CSc3ccccn3)cc2)cc1
→ -1.9	0.98	0	98	78	-6	i
48: COc1cc(/C=C/C(=O)O)cc(S(=O)(=O)NC2CCCC2)c1OC
→ x	0.93	x	x	97	x	i
49: Cc1ccc(C(=O)Nc2cccc(C(=O)O)c2)cc1S(=O)(=O)N1CCOCC1
→ 0.0	0.87	0	63	123	-5	i
50: Brc1ccc(-c2nnc(-c3ccccc3Br)o2)cc1
→ -2.0	0.83	27	116	110	-2	i
51: Cc1ccc(CN(C(=O)c2sc3ccccc3c2Cl)C2CCS(=O)(=O)C2)cc1 (stereo not given)
→ -2.6	0.87	-83	106	106	-4	i
52: COc1ccc(N2CCN(C(=O)CCN3C(=S)NC(C)(C)CC3C)CC2)cc1 (stereo not given)
→ x	0.97	-47	74	99	-4	i
53: Cc1cc(=O)c2ccc(C(F)(F)F)cc2[nH]1
→ x	1.1	x	x	97	x	i
54: CC(C)(C)OC(=O)NCCCC[C@@H](C(=O)N1CCN(C(=O)OC(C)(C)C)CC1)n1cc(C(CO)NC(=O)OC(C)(C)C)nn1 (stereo not given in full)
→ x	0.99	x	x	104	10	i
55: O=C(OCC(=O)N1CCCC1)c1ccccc1OCc1ccccc1
→ -0.1	0.85	-58	62	103	-3	i
56: Cc1cccc(NC(=S)N/N=C/c2c[nH]c3ccccc23)c1
→ -1.2	0.64	-45	79	98	15	i
57: COc1ccc(S(=O)(=O)N(CC(C)C)CC(C)C)c2cccnc12
→ -1.0	1	x	x	93	-3	i
58: COc1ccc(C(C)=O)cc1CSc1nnc(Nc2ccc(C)cc2)s1
→ -0.8	1	0	90	47	-2	i
59: COc1ccc(C(=O)COC(=O)CNC(=O)C2CCCCC2)c(OC)c1
→ -1.7	1.1	-9	124	100	-2	i
60: C(=N\Nc1nnnn1-c1ccccc1)/c1ccncc1
→ -1.3	0.96	-100	78	106	-6	i

3 entries already listed, sorted by number of heavy atoms, smallest number first:
The line under a structure holds: GALR2 ag	HSV augment primary fold	INS promoter inh	INS promoter inh cell count	RGS16-Gao	PKD1 kinase inh	HSV augment
53: Cc1cc(=O)c2ccc(C(F)(F)F)cc2[nH]1
→ x	1.1	x	x	97	x	i
57: COc1ccc(S(=O)(=O)N(CC(C)C)CC(C)C)c2cccnc12
→ -1.0	1	x	x	93	-3	i
51: Cc1ccc(CN(C(=O)c2sc3ccccc3c2Cl)C2CCS(=O)(=O)C2)cc1 (stereo not given)
→ -2.6	0.87	-83	106	106	-4	i

The list continues.
The line under a structure holds: GALR2 ag	HSV augment primary fold	INS promoter inh	INS promoter inh cell count	RGS16-Gao	PKD1 kinase inh	HSV augment
61: CCOc1ccc(C2=CS/C(=C(\C#N)c3nnc4n3CCCCC4)N2CC)cc1
→ 2.5	0.94	-403	42	101	-3	i
62: Cc1cccc(N2C(=O)C(Cl)=C(Nc3c(C)n(C)n(-c4ccccc4)c3=O)C2=O)c1C
→ -1.2	0.95	43	71	102	-5	i
63: CCC(=O)n1nc(-c2cccnc2)nc1NCc1cccs1
→ x	0.89	-119	84	103	-2	i
64: N#C/C(=C\C1CC=CCC1)c1nc2ccccc2[nH]1 (stereo not given)
→ -0.4	0.9	x	x	99	-8	i
65: CC1(C)CC(=O)C2=C(C1)NC(SCC(=O)Nc1ccccc1)=C(C#N)C2c1ccco1 (stereo not given)
→ -2.7	x	-26	120	96	-1	x
66: COc1ccc(NC(=O)c2ccccc2NC(=O)COc2ccccc2)cc1
→ -4.1	0.91	-32	62	94	-11	i
67: COc1ccc(NC(=O)c2ccccc2NC(=O)CSc2ccc(Cl)cc2)cc1
→ -0.4	1	23	67	101	-16	i
68: COc1ccc(N2C(=O)CC(Nc3ccc(C(=O)O)cc3)C2=O)cc1OC (stereo not given)
→ x	0.95	-6	72	102	6	i
69: COc1ccc(OCC(=O)N/N=C/C=C/c2ccccc2)cc1
→ -1.8	0.95	-14	73	116	6	i
70: COc1ccccc1C(=O)NCC(=O)OCc1ccc(Br)cc1
→ -0.5	0.97	x	x	86	-3	i
